From PubChem BioAssay
HSV augment: HSV replication enhancement; hit rate 0.005% among 220,000; maximum fold increase; HSV replication augmentation in cells, fold increase;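 active = peak rise of 1.5-fold or more in the series; inconclusive = self-fluorescent or not available for retest; tested in PC3 cells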;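 also: first round at 10 µM; read as green reporter fluorescence; hits show the peak of a series up to 25 µM; 1 = signal of infected wells without compound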
PKD1 kinase inh: blocks activity of human protein kinase D1 | Q15139 | PKD1 kinase fluorescence polarization assay | inhibition, %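 (about 10 µM by stock and volumes)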 | hit rate 0.056% among 200,000 | AID 797;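 active = inhibition of 50% or more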;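 also: controls were vehicle for no effect and a reference inhibitor for full effect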
Target sequence (Q15139 whole entry, looked up): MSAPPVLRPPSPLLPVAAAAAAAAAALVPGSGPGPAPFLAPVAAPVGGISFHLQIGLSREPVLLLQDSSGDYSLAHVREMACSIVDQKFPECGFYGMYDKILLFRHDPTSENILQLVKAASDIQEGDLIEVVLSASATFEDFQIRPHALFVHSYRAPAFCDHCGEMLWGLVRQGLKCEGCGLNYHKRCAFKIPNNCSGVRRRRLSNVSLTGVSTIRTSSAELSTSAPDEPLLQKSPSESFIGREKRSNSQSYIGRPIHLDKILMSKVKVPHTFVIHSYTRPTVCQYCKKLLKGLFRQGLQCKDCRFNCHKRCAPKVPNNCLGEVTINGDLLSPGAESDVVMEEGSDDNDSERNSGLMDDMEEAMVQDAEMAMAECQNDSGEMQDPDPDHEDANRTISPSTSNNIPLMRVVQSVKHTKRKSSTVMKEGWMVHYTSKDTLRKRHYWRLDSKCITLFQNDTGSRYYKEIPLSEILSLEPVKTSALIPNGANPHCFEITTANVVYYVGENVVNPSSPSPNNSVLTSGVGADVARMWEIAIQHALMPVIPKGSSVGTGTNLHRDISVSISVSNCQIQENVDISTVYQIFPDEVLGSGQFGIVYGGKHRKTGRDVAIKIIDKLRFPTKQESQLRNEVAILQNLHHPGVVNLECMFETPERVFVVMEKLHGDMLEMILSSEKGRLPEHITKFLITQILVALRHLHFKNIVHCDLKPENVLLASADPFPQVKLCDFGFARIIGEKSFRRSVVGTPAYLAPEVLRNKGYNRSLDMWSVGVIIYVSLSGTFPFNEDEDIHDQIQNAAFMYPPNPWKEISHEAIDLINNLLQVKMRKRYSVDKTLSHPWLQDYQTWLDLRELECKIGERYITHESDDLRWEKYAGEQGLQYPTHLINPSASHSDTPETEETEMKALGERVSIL
INS promoter inh: TRM-6 insulin promoter activity inhibition; inhibition, % at 2 µM; TRM-6 cells (human fetal islet line), insulin promoter-eGFP reporter, imaging; reporter expression induced with tamoxifen; hit rate 0.9% among 130,000;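 active = inhibition above the mean plus 3 SD, with well images judged a real hit on visual review, cut at about 60% in these data, passing the limit was not always enough; inconclusive = inhibition over the cutoff but images rejected on review; inactive = inhibition not above the cutoff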
RGS16-Gao: modulates binding between human RGS16 and Galphao | binding response (% of control), % at 10 µM | hit rate 0.38% among 220,000 | O15492+P09471 | bead-based flow cytometry RGS16-Galphao binding, fluorescence; actives lie on both sides;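 active = below 25% or above 175%, edge rows of some plates excepted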;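 also: Galphao activated by GDP with aluminum fluoride before binding; 100% = wells without compound and 0% = beads without RGS; some results beyond the cut were filed as inactive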
GALR2 ag: agonists of human galanin receptor 2 (GALR2); hit rate 0.48% among 140,000; O43603; activation, %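 (tested at 5 µM)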; AID 803; GALR2-expressing cells, agonist activation read-out;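 active = above mean plus 3 SD of all compounds, about 5% in these data, not always enough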;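 also: 0% = vehicle buffer wells and 100% = reference agonist at full effect; tested in CHO reporter cells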
INS promoter inh cell count: also measured in INS promoter inh; calls as there; normalized cell count, %; measured here: cell count, toxicity; reference of the scale not given here;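 cells exposed to compound for 48 h; stained nuclei by imaging scaled within each plate; lower means fewer cells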
HSV augment primary fold: also measured in HSV augment; calls as there; fold increase; compound at 10 µM; measured here: primary screen fold increase 10 uM; tested in PC3 cells;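 GFP signal in the first replicate; 1 = infected wells without compound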
* = called active by the depositor; i = inactive; u = inconclusive; x = no result given. These rows are one share of the data; count on the stated rates, not on these rows.

SMILES	HSV augment	HSV augment primary fold	PKD1 kinase inh	INS promoter inh	INS promoter inh cell count	RGS16-Gao	GALR2 ag
Cc1cc(C)cc(N2C(=O)NC(=O)/C(=C\c3cccn3-c3ccccc3)C2=O)c1	i	0.71	-6	39	133	99	-0.3
CC(=NCCN(C)C)c1c(O)n(Cc2ccccc2)c(=O)[nH]c1=O	i	0.97	x	x	x	99	x
Cc1cc(NC(=O)CCl)on1	i	0.93	-1	x	x	102	x
CCCCn1c(O)c(C(C)=NCCN2CCOCC2)c(=O)[nH]c1=O	i	0.82	0	7	97	95	-0.7
CN1CC[C@]2(c3cccc(O)c3)Cc3nc4ccccc4cc3C[C@H]2C1	i	0.82	x	x	x	104	x
CCOP(=O)(OCC)C(c1ccccc1)N(C)C=O (configuration not stated)	i	0.97	0	28	100	82	-1.7
CCN(CCNc1ccc([N+](=O)[O-])c2cccnc12)S(=O)(=O)c1ccccc1	i	1.1	-2	x	x	103	-0.3
CCOP(=O)(OCC)C1(O)C(=O)Nc2ccc(Br)cc21 (configuration not stated)	i	1.2	-6	12	152	99	-0.4
c1ccc2c(CCNCc3ccc4c(c3)OCO4)c[nH]c2c1	i	1.1	6	-71	79	72	-1.0
O=C(c1cccc(Cl)c1)C1CCCN(Cc2ccon2)C1 (configuration not stated)	i	1	10	-45	119	110	x
COc1cccc(C2(O)CCSCC2CN(C)C)c1 (configuration not stated)	i	1.1	4	-10	86	131	0.3
Cc1ccccc1-n1c(/C=C/c2ccccn2)nc2ccccc2c1=O	i	0.79	x	x	x	96	x
O=c1[nH]c(=S)n(CCC2=CCCCC2)c(O)c1C=NC1CCN(Cc2ccccc2)CC1	i	0.98	1	28	113	131	-2.6
CC(=O)O[C@]1(c2ccccc2)CCN(C)[C@H]2CCCC[C@@H]21	i	0.78	9	44	109	111	-1.5
CN1CCN(CC(=O)Nc2ccc([N+](=O)[O-])cc2C(=O)c2ccccc2)CC1	i	0.95	-4	12	80	102	x
COc1ccc(C(CNC(=O)Cc2ccc(Cl)c(Cl)c2)N(C)C)cc1 (configuration not stated)	i	0.89	-4	x	x	96	x
CCCCSC1=NN1c1nc(N)nc(C)c1CC	i	0.85	4	21	167	105	-0.3
CSc1nnc([C@@H](N)Cc2c[nH]c3ccccc23)o1	i	0.97	0	x	x	100	x
COc1cc(OC)c(OC)cc1CNC(C)C(O)c1ccccc1 (configuration not stated)	i	0.83	0	29	102	100	-2.4
c1ccc2c(c1)Sc1ccccc1N2CC1CN2CCC1CC2 (configuration not stated)	i	0.6	x	x	x	100	x
Fc1ccc(CNCCc2ccccc2)cc1	i	0.85	2	-64	94	111	x
Cc1ccc(OCC(=O)NCCN2CCN(C(=O)COc3ccc(C)cc3)CC2)cc1	i	1	-4	-3	144	102	-0.1
CCCCn1c(O)c(/C=C/C=Nc2ccccc2)c(=O)[nH]c1=O	i	1.3	-7	x	x	106	-0.9
O=C1C2CCN(CC2)C1Cc1ccc(OCc2ccccc2)cc1 (configuration not stated)	i	0.99	9	x	x	98	x
CN1CCN(C(=O)COc2ccc(Oc3ccccc3)cc2)CC1	i	0.87	-9	x	x	106	x

Looked up above.
Reading for O=C(c1cccc(Cl)c1)C1CCCN(Cc2ccon2)C1 (configuration not stated) in INS promoter inh cell count: 119
Reading for CCOP(=O)(OCC)C(c1ccccc1)N(C)C=O (configuration not stated) in RGS16-Gao: 82
Reading for c1ccc2c(c1)Sc1ccccc1N2CC1CN2CCC1CC2 (configuration not stated) in RGS16-Gao: 100
Reading for O=c1[nH]c(=S)n(CCC2=CCCCC2)c(O)c1C=NC1CCN(Cc2ccccc2)CC1 in GALR2 ag: -2.6
Reading for Cc1ccccc1-n1c(/C=C/c2ccccn2)nc2ccccc2c1=O in HSV augment primary fold: 0.79
Reading for Cc1cc(C)cc(N2C(=O)NC(=O)/C(=C\c3cccn3-c3ccccc3)C2=O)c1 in INS promoter inh: 39

Record cards, from the list above:
`COc1cccc(C2(O)CCSCC2CN(C)C)c1` (configuration not stated) reads HSV augment: i; HSV augment primary fold: 1.1; PKD1 kinase inh: 4; INS promoter inh: -10; INS promoter inh cell count: 86; RGS16-Gao: 131; GALR2 ag: 0.3
`c1ccc2c(CCNCc3ccc4c(c3)OCO4)c[nH]c2c1` reads HSV augment: i; HSV augment primary fold: 1.1; PKD1 kinase inh: 6; INS promoter inh: -71; INS promoter inh cell count: 79; RGS16-Gao: 72; GALR2 ag: -1.0
`O=C(c1cccc(Cl)c1)C1CCCN(Cc2ccon2)C1` (configuration not stated) reads HSV augment: i; HSV augment primary fold: 1; PKD1 kinase inh: 10; INS promoter inh: -45; INS promoter inh cell count: 119; RGS16-Gao: 110; GALR2 ag: x

The main list resumes with the 5 entries that preceded the break.
SMILES	HSV augment	HSV augment primary fold	PKD1 kinase inh	INS promoter inh	INS promoter inh cell count	RGS16-Gao	GALR2 ag
Fc1ccc(CNCCc2ccccc2)cc1	i	0.85	2	-64	94	111	x
Cc1ccc(OCC(=O)NCCN2CCN(C(=O)COc3ccc(C)cc3)CC2)cc1	i	1	-4	-3	144	102	-0.1
CCCCn1c(O)c(/C=C/C=Nc2ccccc2)c(=O)[nH]c1=O	i	1.3	-7	x	x	106	-0.9
O=C1C2CCN(CC2)C1Cc1ccc(OCc2ccccc2)cc1 (configuration not stated)	i	0.99	9	x	x	98	x
CN1CCN(C(=O)COc2ccc(Oc3ccccc3)cc2)CC1	i	0.87	-9	x	x	106	x
COc1ccccc1N1CCN(Cc2ccc(Cl)cc2Cl)CC1	i	1	1	-35	144	115	-0.1
COc1ccccc1OCCCn1cc(C=O)c2ccccc21	i	1	2	x	x	109	x
CC(O)(CS(=O)(=O)c1cccc(C(F)(F)F)c1)C(=O)Nc1cccc(C(F)(F)F)c1 (configuration not stated)	i	0.89	-3	-22	139	97	-1.7
CCC(C)c1ccc(N2C(=O)NC(=O)/C(=C/c3cccn3CCOc3ccc(C)cc3)C2=O)cc1 (configuration not stated)	i	1.3	5	x	x	93	0.4
C[N+](C)(C)CC(=O)Nc1ccc(Cl)cc1C(=O)c1ccccc1	i	0.96	0	-12	112	103	x
C=CCn1c(O)c(C(CC)=NCC2CCCO2)c(=O)[nH]c1=O (configuration not stated)	i	0.9	x	x	x	137	x
CSc1nnc(C2CCNCC2)n1C	i	0.9	-4	7	92	100	-0.9
CC(=NCc1ccco1)c1c(O)n(-c2ccc(C)cc2)c(=O)[nH]c1=O	i	1.1	x	x	x	107	x
CN(C)CC1CSCCC1(O)c1ccccc1 (configuration not stated)	i	0.98	0	-145	118	41	-1.7
CCc1cc(=O)[nH]c(SCCCF)n1	i	0.96	6	x	x	101	x
COc1ccc(N=C2SCCCN2C)cc1	i	1	-8	i	33	105	-1.8
Cc1ccc2c(c1)C1CN(C)CCC1N2C(=O)/C=C/c1ccc2c(c1)OCO2 (configuration not stated)	i	0.86	1	x	x	101	x
CC(C)CN1CCN(Cc2ccc(C(F)(F)F)cc2)CC1CCO (configuration not stated)	i	0.89	x	x	x	99	x
c1cc2c(cc1CCNC1CCCCCC1)OCO2	i	0.95	-7	-19	120	105	-2.2
C[N+]1(C)CCN(c2ccccc2)CC1	i	0.86	-5	18	114	108	-0.8
CN1C(=O)N(C)C(=O)C2(Cc3c(nc4ccccn4c3=O)N3CCc4ccccc4C32)C1=O (configuration not stated)	i	0.88	-2	x	x	110	-1.1
CC1(C)CC(=O)C(C2(O)C(=O)NC(=O)NC2=O)=C(O)C1	i	1	1	x	x	99	-1.1
COc1ccc(CNC(=O)C(NC(C)=O)C(C)C)cc1OC (configuration not stated)	i	0.97	-5	x	x	92	x
C[N+]1(C)C2CCC1CC(OC(=O)c1ccco1)C2 (configuration not stated)	i	1	x	x	x	102	x
Cn1c(O)c(C=NC2C(=O)C3(C)CCC2C3(C)C)c(=O)n(C)c1=O (configuration not stated)	i	1	4	-3	75	107	-1.0
Cc1ccc(-n2nc(C)cc2NC(=O)COc2cc(C)cc3oc(=O)c4c(c23)CCC4)cc1	i	0.58	-5	-18	222	101	-3.7
Cc1nc(SCc2c(Cl)cccc2Cl)nc(OC(=O)N(C)C)c1C	i	1	x	x	x	98	x
CCCCn1c(O)c(C(CC)=Nc2cccc(C(=O)O)c2)c(=O)[nH]c1=O	i	1.1	5	29	113	96	-0.6
CN(C)C(=O)Oc1ccc(OC(=O)c2ccccc2)cc1	i	0.85	-2	x	x	102	-1.5
Cc1ccc(S(=O)(=O)N2CC2(C)CCl)cc1 (configuration not stated)	i	0.93	x	x	x	105	x

Continuation.
SMILES	HSV augment	HSV augment primary fold	PKD1 kinase inh	INS promoter inh	INS promoter inh cell count	RGS16-Gao	GALR2 ag
Cn1c(O)c(/C=C/C=Nc2ccccc2)c(=O)n(C)c1=O	i	1	-7	x	x	103	-0.5
O=C(COC(=O)Cc1ccccc1)Nc1ccc(Cl)cn1	i	0.81	-4	x	x	101	x
CN(C)C(=O)Oc1cc(=O)n2c3c(cccc13)CCC2	i	1.1	9	-10	112	80	0.4
CCCCOC(=O)C1=C(N)OC2=C(C(=O)CC(C)(C)C2)[C@]12C(=O)N(C)c1ccccc12	i	0.82	9	39	102	113	-2.3
N#CC(C#N)=Cc1ccc(N2CCCC2)cc1	i	1	-6	x	x	150	x
COc1ccc(N=Cc2c(O)n(Cc3cccs3)c(=O)[nH]c2=O)cc1	i	1	6	x	x	116	x
Cc1ccc(OCC(=O)N2CCN(Cc3ccc([N+](=O)[O-])cc3)CC2)cc1	i	1	x	x	x	96	x
Cn1c(O)c(C=NCCCC(=O)O)c(=O)n(C)c1=O	i	0.88	0	26	97	87	-0.3
COc1cccc(C(=O)C2CCCN(Cc3cccc4c3OCO4)C2)c1 (configuration not stated)	i	1.1	2	-19	83	104	x
CCCOC(=O)Nc1ccc([As](=O)(O)O)cc1NC(=O)OCCC	i	1.3	x	x	x	103	x
CN1C(=O)N(C)C(=O)C2(Cc3cc(N)ccc3N3CCN(c4ccccc4F)CC32)C1=O (configuration not stated)	i	0.88	-3	x	x	89	-2.9
O=C1NC(=O)N(c2cccc(Cl)c2)C(=O)/C1=C\c1ccc(Sc2nc3ccccc3[nH]2)o1	u	x	-6	21	118	94	-1.4
COc1ccccc1CC1C(=O)C2CCN1CC2 (configuration not stated)	i	1	-5	-41	128	102	-2.8
Cc1ccccc1NC1=NCCCS1	i	1	-9	-15	107	98	-1.1
C=CCn1c(O)c(/C=N/N2CCCCC2c2cccnc2)c(=O)[nH]c1=S (configuration not stated)	x	x	5	x	x	103	-0.7
Clc1ccccc1CN1CCN(c2cccc3[nH]ccc23)CC1	x	x	x	x	x	102	x
COC(=O)c1cn(C(=O)c2cccc3ccccc23)c2ccccc12	i	0.79	x	x	x	101	x
COc1ccccc1CC1/C(=N/O)C2CCN1CC2 (configuration not stated)	i	1.2	-5	9	91	102	-0.4
Cc1cccc(NP(=O)(Oc2ccccc2F)Oc2ccccc2F)c1C	i	0.99	1	6	71	105	-1.0
Cc1ccc2nc3c(cc2c1)CC1(C(=O)N(C)C(=O)N(C)C1=O)C1CCCCN31 (configuration not stated)	i	0.96	-5	x	x	116	-1.8
O=C(c1ccc(CNS(=O)(=O)c2ccc(Br)cc2)cc1)N1CCC2(CC1)OCCO2	i	1	-13	7	84	103	-1.6

Two compounds drawn at random from the list so far, as already listed:
SMILES	HSV augment	HSV augment primary fold	PKD1 kinase inh	INS promoter inh	INS promoter inh cell count	RGS16-Gao	GALR2 ag
Cc1ccc(OCC(=O)N2CCN(Cc3ccc([N+](=O)[O-])cc3)CC2)cc1	i	1	x	x	x	96	x
Cc1cccc(NP(=O)(Oc2ccccc2F)Oc2ccccc2F)c1C	i	0.99	1	6	71	105	-1.0
